# Compound activity as filed in PubChem BioAssay.
# EPAC1 ag val – human EPAC1 agonism, validation; O95398; 16,000 compounds, 1% hits; EPAC1 Rap1b BODIPY-GDP exchange, fluorescence; Potency, µM, without a hit: max response, positive = active, actives largely listed as activators; active = well fitted activation curve with a large enough effect; inconclusive = small, poorly fitted or top-dose-only effect; inactive = no such curve, though single readings can be large or run the other way;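 also: nearly all actives have a fitted effect of over 70% in size; series mostly up to about 76 or 150 µM; scaled to a cAMP control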
# Target sequence (O95398 whole entry, looked up): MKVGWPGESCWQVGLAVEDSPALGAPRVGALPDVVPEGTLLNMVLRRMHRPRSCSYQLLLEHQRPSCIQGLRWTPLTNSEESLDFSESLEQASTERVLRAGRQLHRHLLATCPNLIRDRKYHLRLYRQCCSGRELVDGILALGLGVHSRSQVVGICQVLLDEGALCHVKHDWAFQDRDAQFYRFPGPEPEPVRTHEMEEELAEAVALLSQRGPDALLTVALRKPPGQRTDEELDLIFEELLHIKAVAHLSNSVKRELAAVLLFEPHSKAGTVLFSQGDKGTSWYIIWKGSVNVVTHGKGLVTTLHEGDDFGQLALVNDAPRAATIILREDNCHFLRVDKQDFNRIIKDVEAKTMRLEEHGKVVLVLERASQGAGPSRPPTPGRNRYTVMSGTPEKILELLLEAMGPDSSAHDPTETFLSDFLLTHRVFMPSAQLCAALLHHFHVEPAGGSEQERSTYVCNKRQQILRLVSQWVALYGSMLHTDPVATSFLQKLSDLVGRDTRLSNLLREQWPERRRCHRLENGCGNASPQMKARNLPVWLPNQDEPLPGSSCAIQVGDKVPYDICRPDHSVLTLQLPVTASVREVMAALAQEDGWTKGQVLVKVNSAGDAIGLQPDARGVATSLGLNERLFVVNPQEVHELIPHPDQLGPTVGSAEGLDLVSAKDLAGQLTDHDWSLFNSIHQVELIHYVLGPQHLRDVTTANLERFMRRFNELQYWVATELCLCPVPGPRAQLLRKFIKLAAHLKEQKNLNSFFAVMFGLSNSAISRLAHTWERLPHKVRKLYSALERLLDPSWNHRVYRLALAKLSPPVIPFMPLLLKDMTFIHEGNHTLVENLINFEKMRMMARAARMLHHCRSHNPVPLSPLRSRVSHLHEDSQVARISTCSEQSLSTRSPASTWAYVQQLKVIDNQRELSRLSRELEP
# * marks the source's active call; other numbers are inactive results; u = inconclusive; & = joins results of further samples; [ ] = remark or other dose. % is scaled to controls: 0 for no effect and ±100 for the full control effect; potency is read from the fitted curve at half-maximal effect. Some of the compounds tested. The share of hits here may be higher or lower than overall.
SMILES,EPAC1 ag val
O=C1CCc2ccc(OCCCCN3CCN(c4cccc(Cl)c4Cl)CC3)cc2N1,13%
O=C(NCC1CCC2(CCN(Cc3cccc(-c4ccco4)c3)CC2)O1)c1ccccc1 (stereo not given),6%
O=c1c(-c2cccc(F)c2)nc2cncnc2n1C1CC1,-30%[inhibitor]
COc1ccccc1C(=O)N[C@@H]1c2ccccc2C2(CCN(Cc3ccc(C)o3)CC2)[C@H]1O,21%
O=C(Cc1ccc[nH]c1=O)c1ccc(F)cc1,u
O=c1cc(-c2ccccc2)oc2cccc(O)c12,4%&13%
CN1CCCCCC1C(=O)NCC1Cc2cc(-c3cnccn3)ccc2O1 (stereo not given),u
COc1ccccc1CCn1c(=O)c(-c2cccc(F)c2)nc2cncnc21,u
Cc1ccc(C(=O)Nc2cccc(-c3nc(CNC(=O)c4ccc5ccccc5n4)c(C)o3)c2)s1,3%
CCOC(=O)c1ccc(-c2c(-c3ccc4c(c3)OCO4)noc2C)cc1F,15%
CC(N)C(=O)OC(C)(C)Cc1ccc(Cl)cc1 (stereo not given),2%&12%
O=C1CCC[C@@H]2C[C@@]3(C[C@@H]4CCN1[C@H]24)Nc1cc([N+](=O)[O-])ccc1NC3=NCc1ccccc1,15%
c1ccc(Nc2ncncc2-c2ccc3c(c2)OCO3)cc1,-54%[inhibitor]
O=C(O[C@H]1[C@H](Cc2ccccc2)NS(=O)(=O)[C@H]2CC3C=C[C@]12O3)c1ccc(Br)cc1,30%
COc1cccc(CN2CCC3(CCC(CNC(=O)c4ccccc4)O3)CC2)c1 (stereo not given),-3%
COCCn1c(=O)c(-c2cccc(C#N)c2)nc2cnc(N3CCNCC3)nc21,2%
O=c1c(O)c(-c2ccccc2)oc2cccc(O)c12,17%
C=CC(C1=CC(=O)C=CC1=O)c1ccccc1 (stereo not given),u
COCCn1c(=O)c(CCc2ccccc2)nc2cncnc21,-33%[inhibitor]
COc1cc(/C=C/C(=O)N2CCN(CC(=O)N3CCCC3)CC2)cc(OC)c1OC,7%
Cc1ccccc1-c1ccc2ncnc(NCc3cccs3)c2c1,1%
CC1(C)Oc2ccc3ccc(=O)oc3c2CC1O (stereo not given),-2%
CC(C)c1c(O)c(-c2cc3c(c(C(C)C)c2O)CCC2C(C)(C)CCC[C@@]32C)cc2c1CCC1C(C)(C)CCC[C@@]21C (stereo not given in full),5%
OC1(c2cccnc2)CCN(Cc2ccc3c(c2)CN(Cc2ccsc2)CCO3)CC1,6%
Cc1onc(-c2c(Cl)cccc2Cl)c1C(=O)NC1C(=O)N2C1SC(C)(C)C2C(=O)O (stereo not given),25%
O=C(O)C1=CC(O)[C@@H](O)C(O)C1 (stereo not given in full),-93%[inhibitor]
COc1cc([C@@H]2c3cc4c(cc3[C@H](O)[C@H]3COC(=O)[C@H]23)OCO4)cc(OC)c1OC,-20%&-1%&-36%
CC(C)[C@H](CO)Nc1nc(Nc2cc(N)cc(Cl)c2)c2ncn(C(C)C)c2n1,16%
FC(F)(F)c1ccccc1-c1nccc(NCc2ccccc2)n1,-59%[inhibitor]
N[C@]1(C(=O)O)CCc2cc(C(=O)O)ccc21,6%
CC(C)(C)c1ccc(O)c(O)c1,-64%[inhibitor]
Cc1ncc2c(c1CNC(=O)c1ccc3c(c1)OCO3)CCN(C(=O)c1csc3c1CCCC3)C2,-1%
Clc1cc(Cl)c(OCC#CI)cc1Cl,15%
COc1ncc2nc(-c3ccccc3)c(=O)n(CCc3ccccc3)c2n1,13%
NC(N)=N/N=C\c1c(Cl)cccc1Cl,30%
CCC(C)(C)N=C(NC#N)Nc1cccnc1,7%
Cc1c[nH]c2ccccc12,-33%
N#CCCn1c(=O)c(CCc2ccccc2)nc2cnc(OCc3ccccc3)nc21,15%
Cc1nc(N=Nc2cc(S(=O)(=O)O)ccc2S(=O)(=O)O)c(COP(=O)(O)O)c(C=O)c1O,-2%
COc1ccc2c(c1)-c1nc(-n3ncc(C(=O)N(C)C(C)c4ccon4)c3C3CC3)ncc1CC2 (stereo not given),7%
CC(=O)NCCNc1nc(-c2ccc(C(=O)N(C)C)cc2)nc2ccccc12,-20%
N#Cc1ccc(CN2CC3(CCN(C(=O)c4ccncc4)CC3)C2)cc1,8%
COc1ccc(C(=O)Nc2ccccc2CCC2CCCCN2C)cc1 (stereo not given),13%
NCCn1oc(=O)[nH]c1=O,-5%
O=C(c1cccc(F)c1)N1CCC2(CC1)CCN(c1ncccn1)CC2,-44%[inhibitor]
Cc1cc2c(cc1C)N[C@]1(C[C@H]3CCCC(=O)N4CC[C@@H](C1)[C@@H]34)C(=NC1CCCCC1)N2,4%
COc1ccccc1CN1CCC(n2cc(C(=O)N3CCCCC3)nn2)CC1,1%
Cc1noc(C)c1-c1cncnc1NCc1cccnc1,-38%[inhibitor]
O=S1(=O)CCOC[C@H](c2ccccc2)N1Cc1ccccc1F,u
COCC(=O)Nc1cc(C(=O)NC2CCc3ccccc32)c2c(c1)nc(-c1ccncc1)n2C (stereo not given),0%
NC(=O)Oc1ccc(Cc2ccccc2)cc1,-16%
COc1ccc(C(=O)c2ccc(O)cc2)c(O)c1O,u
Cn1cc(C(=O)[C@@H]2CCc3nc[nH]c3C2)c2ccccc21,7%
CC(C)(C)NC[C@H](O)COc1nsnc1N1CCOCC1,2%&-23%&-5%
Cc1cnc(C)c(-c2cccc3c2OC(CNC(=O)C[C@@H]2C[C@@H](C)NC(=S)N2)C3)n1 (stereo not given in full),6%
COc1ccc(NC(=O)N2CC[C@@]3(CCCN(C(=O)c4ccco4)C3)C2)cc1,-66%[inhibitor]
COc1ccc2[nH]c(I)c(CCNC(C)=O)c2c1,-9%&-3%
O=C(Nc1cccc(F)c1)N1CCCC2(CCNCC2)C1,-30%
CO[C@H]1[C@H](NC(=O)c2ccsc2)c2ccccc2C12CCN(Cc1c(O)ccc3ccccc13)CC2,3%
O=c1c(-c2ccc(F)cc2)nc2cnc(Oc3cccc(Cl)c3)nc2n1C[C@H]1CCCO1,29%

# More structures follow.
SMILES,EPAC1 ag val
COc1ccc2c(c1)OCC(Cc1ccc(OC)c(O)c1)C2=O (stereo not given),u
Cc1cnc(SCCN2CCOCC2)nc1C1CCCN(C(=O)c2cccc3c(C)c(C)[nH]c23)C1 (stereo not given),9%
O=C(CCc1ccc(O)cc1)c1c(O)cc(O)cc1O[C@H]1OC(CO)C(O)C(O)C1O (stereo not given in full),22%
CC(=O)N[C@@H](CSC/C=C(\C)CC/C=C(\C)CC/C=C(\C)CCC=C(C)C)C(=O)O,-2%&-38%
O=C(O)[C@@H]1C[C@@H](C(=O)O)N1,8%&-16%&-15%
CC(=O)OCC(=O)[C@@]1(O)CC[C@H]2[C@@H]3C[C@H](C)C4=CC(=O)C=C[C@]4(C)[C@H]3[C@@H](O)C[C@@]21C,-19%
CN1CCC(=O)N([C@H](CSc2ccccc2)Cc2ccccc2)CC1,-11%
O=c1cnc2cnc(OCc3ccccc3)nc2n1Cc1ccc(F)cc1,21%
CCCCCC1Nc2cc(C(F)(F)F)c(S(N)(=O)=O)cc2S(=O)(=O)N1 (stereo not given),8%
CC(C)C(=O)Nc1ccc([N+](=O)[O-])c(C(F)(F)F)c1,4%&-25%&-21%
CCCN(C/C=C/I)C1CCc2cccc(O)c2C1 (stereo not given),3%
O=C(CCc1ccc(O)cc1)c1c(O)cc(O)cc1O,-14%&-5%&-22%
O=C1CCN(Cc2ccccc2)CCN1[C@H](COc1ccccc1)Cc1ccccc1,-7%
COC(=O)C1CCCCN1Cc1nc(N(C)C)c2ccccc2n1 (stereo not given),1%
CS(=O)(=O)N1CCC2(CCCN(C(=O)Nc3cccc(C#N)c3)C2)CC1,-11%
COc1ccc2cc(CCC(C)=O)ccc2c1,-37%&20%
O=C(NCCc1ccccc1)[C@@H]1CC=C[C@@H]2CCN(Cc3ccc(Cl)c(Cl)c3)C(=O)[C@@H]21,-16%
CCCCCCCCCCCCCC(=O)OC(C)C,6%
N[C@@H]1CONC1=O,-3%&6%
FC(F)(F)c1ccccc1-c1ccc2ncnc(NCc3cccnc3)c2c1,-16%
CCCCC/C=C\C/C=C\C/C=C\C/C=C\CCCCCC(=O)O,-14%
O=C(c1cccc(F)c1)N1CCC2(CC1)CN(c1ccncc1)C2,u
O=C(O)CCC/C=C\C[C@@H]1C(/C=C/[C@@H](O)COc2cccc(C(F)(F)F)c2)[C@@H](O)C[C@@H]1O (stereo not given in full),-19%
COC(=O)c1cc(CNC(=O)c2cnsn2)cc(NC(=O)c2ccccc2OC)c1,-2%
CCC1CN(CCNC(=O)c2ccc(C#CC(C)(C)O)cc2)Cc2cc(OC)ccc2O1 (stereo not given),5%
C[C@@H](O)[C@H]1C(=O)N2C(C(=O)O)=C(S[C@@H]3CN[C@H](C(=O)N(C)C)C3)[C@H](C)[C@H]12,-2%
COc1ccc(-n2c(=O)c(-c3ccc(F)cc3)nc3cnc(N4CCOCC4)nc32)cc1,-43%[inhibitor]
O=C1CCC[C@@H]2C[C@@]3(C[C@@H]4CCN1[C@H]24)Nc1cc(Cl)ccc1NC3=NCc1ccccc1,19%
COc1ccc(-n2c(=O)c(-c3ccc(F)cc3)nc3cncnc32)cc1,u
COCC(=O)Nc1cc(C(=O)N2CC3(C)CC2CC(C)(C)C3)c2c(c1)nc(-c1ccncc1)n2C (stereo not given),-9%
Cc1ccc2nccnc2c1,-13%
O=C(c1cc(C(F)(F)F)cc(C(F)(F)F)c1)N1CCC2(CCCN(c3ncccn3)C2)CC1,-40%[inhibitor]
CN(C)CCC(c1ccc(Cl)cc1)c1ccccn1 (stereo not given),0%
COc1cc2c(C(=O)c3ccccc3)c3c4c(cc(OC)c(OC)c4c2cc1OC)CCN3C,16%
N[C@H]1CONC1=O,-7%
Cc1cnc(C)c(-c2cccc3c2OC(CNC(=O)CN2C(=O)c4ccccc4C2=O)C3)n1 (stereo not given),-13%
COC(=O)C1CCN(Cc2ccc3c(c2)CN(C(=O)c2cc(C)oc2C)CCO3)CC1,1%
CS(=O)(=O)N1CCC2(CCCN(c3ccncc3)C2)CC1,-47%[inhibitor]
COCCn1c(=O)c(-c2cc(F)cc(F)c2)nc2cnc(Nc3cccc(OC)c3)nc21,89µM*
CC1(C)C(C=C(Cl)Cl)C1C(=O)OCc1cccc(Oc2ccccc2)c1 (stereo not given),17%
O=P(O)(O)OP(=O)(O)OP(=O)(O)O,-9%
COc1ccccc1CN1CCCC2(CCN(C(C)=O)CC2)C1,-36%[inhibitor]
Cc1c(C(=O)N2CCCC2)sc2ncnc(NCCCN3CCOCC3)c12,-9%
CC1(C)CCC(C)(C)c2cc(NC(=O)c3ccc(C(=O)O)cc3)ccc21,-54%[inhibitor]
COc1cccc(CN2C(=O)NC(C)(C3CCN(Cc4cnn(C)c4C)CC3)C2=O)c1OC (stereo not given),-6%
COc1ccc(C(=O)N2CCC3(CC2)CN(c2ccccc2)C3)cc1,u
CC(=O)N(CC(O)CN(C(C)=O)c1c(I)c(C(=O)NCC(O)CO)c(I)c(C(=O)NCC(O)CO)c1I)c1c(I)c(C(=O)NCC(O)CO)c(I)c(C(=O)NCC(O)CO)c1I (stereo not given),-11%
COc1ncc2nc(C)c(=O)n(Cc3cccs3)c2n1,5%
Cc1ccccc1-c1cccc(CN2CCc3nnc(C(C)NC(=O)c4cccnc4)n3CC2)c1 (stereo not given),-5%
C[C@@]12CCC3c4ccc(O)cc4CCC3C1CCC2O (stereo not given in full),10%
COCC(=O)Nc1cc(C(=O)N2CCc3sccc3C2)c2c(c1)nc(-c1ccncc1)n2C,-6%
FC(F)(F)c1cc(CO[C@H]2CCCN[C@H]2c2ccccc2)cc(C(F)(F)F)c1,-26%
COc1ccccc1CN1CC[C@@]2(CCCN(C(=O)c3cccn3C)C2)C1,-16%
COCc1ccc(CN2Cc3cc(Cl)ccc3OC(C)C2)o1 (stereo not given),7%
CC(=O)c1ccccc1-c1ccc2c(c1)CC(CNC(=O)c1cc(C)on1)O2 (stereo not given),5%
N=C(N)n1cccn1,2%
Cc1ccc(/C(=C\CN2CCCC2)c2ccccn2)cc1,0%&25%&18%
COCCNc1nc(-c2ccoc2)nc2ccccc12,-22%
COc1cccc(Nc2ncc3nc(-c4cn(C)c5ccccc45)c(=O)n(CCC#N)c3n2)c1,u
COc1ccc(-c2nc3cc(C)ccc3cc2CN(C(=O)c2csc(C)n2)C2CC2)cc1OC,-4%
CNc1ncncc1-c1ccccc1CN(C)C,1%
